A647 fluor = compound fluoresces in the A647 spectral region; Compound fluorescence, A647 channel (570/671 nm), Tris buffer; AID 592; 59,000 tested, under 10 active; max dye-equivalent concentration, M; active means above 1 µM dye equivalent; inconclusive means 0.1 to 1 µM; inactive means 0.1 µM or less;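 further: values scaled relative to a standard on each plate; highest value over a series up to 38 µM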
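Each compound's intrinsic fluorescence at 570 nm excitation and 671 nm emission is measured across its concentration series in 100 mM Tris, pH 8.0, after 15 min at room temperature, and reported relative to an A647 curve.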
TSHR ag = TSH receptor (human) agonism; P16473; HEK293-CNG-TSHR cells (CNG channel as cAMP sensor), membrane potential dye, cAMP; Potency, µM (top dose mostly 57.1 µM), for the others: top-dose activation, most hits filed as activators; 0.48% of 73,000 active; AID 926; active = well fitted activation curve of enough size with the parental cells flat; inconclusive = any curve in the parental cells; inactive = parental cells flat and receptor cells flat or falling; further: potency means the concentration at half of the fitted maximal effect; % of control where 0% means no effect; weak receptor curves with flat parental cells got no call and are not listed
Target sequence (P16473 whole entry, looked up): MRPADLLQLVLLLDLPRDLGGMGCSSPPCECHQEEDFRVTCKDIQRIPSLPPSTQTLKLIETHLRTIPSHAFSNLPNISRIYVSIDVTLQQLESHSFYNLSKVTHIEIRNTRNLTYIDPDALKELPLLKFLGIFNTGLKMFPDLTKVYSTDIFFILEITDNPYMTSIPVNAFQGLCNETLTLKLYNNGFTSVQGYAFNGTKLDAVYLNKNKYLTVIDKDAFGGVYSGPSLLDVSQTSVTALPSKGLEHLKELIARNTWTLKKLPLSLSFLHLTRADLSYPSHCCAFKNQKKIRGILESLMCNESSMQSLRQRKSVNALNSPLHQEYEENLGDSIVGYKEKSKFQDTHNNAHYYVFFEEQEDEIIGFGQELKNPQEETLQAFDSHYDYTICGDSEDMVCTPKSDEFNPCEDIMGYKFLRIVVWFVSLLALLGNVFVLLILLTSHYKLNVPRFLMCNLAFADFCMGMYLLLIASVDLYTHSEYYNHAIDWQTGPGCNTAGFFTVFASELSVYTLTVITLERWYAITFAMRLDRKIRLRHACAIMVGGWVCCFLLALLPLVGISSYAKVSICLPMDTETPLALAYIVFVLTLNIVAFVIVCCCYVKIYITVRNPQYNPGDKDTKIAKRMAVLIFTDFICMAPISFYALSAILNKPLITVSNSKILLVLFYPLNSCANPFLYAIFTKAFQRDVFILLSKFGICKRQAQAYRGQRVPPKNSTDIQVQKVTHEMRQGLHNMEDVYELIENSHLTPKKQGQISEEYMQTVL
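HEK 293 cells stably expressing TSHR and a cAMP-gated CNG channel; parental CNG-only cells as counterscreen. Cells preloaded 60 min with membrane potential dye plus 100 uM RO 20-1724, then compound 30 min; fluorescence read at 590 nm.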
AID923 = qHTS Assay for Allosteric/Competitive Inhibitors of Caspase-1: Spectroscopic Profiling in AFC Spectral Region. compound fluorescence, AFC spectral region (405/520 nm); almost no hit is shown here. 1.1% of 75,000 active. Potency, µM (top dose mostly 57.5 µM), for the others: at the top dose fluorescence increase, actives largely listed as activators. AID 923, 2007; active means well fitted activation curve with a large enough effect; inconclusive means small, poorly fitted or top-dose-only effect;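 further: potency means the concentration at half of the fitted maximal effect; 0% is about no effect; scaled to a free AFC standard on each plate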
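Compound autofluorescence profiled at 405 nm ex/520 nm em during kinetic caspase 1 run (50 nM enzyme, 5 uM Ac-WEHD-AFC, HEPES pH 7.5, 10 mM DTT). Titration up to 57 uM; baseline from regression intercept, normalized to AFC standard curve.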
A488 autofl = compound autofluorescence in A488 spectral region; compound autofluorescence, A488 spectral region, dye equivalency; stronger effect = higher value; max dye equivalency, M; 0.1% of 59,000 active; AID 591; active = above 10 nM dye equivalent; inconclusive = 1 to 10 nM; inactive = 1 nM or less; about half of its hits are not listed in these tables;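 further: highest value over a series up to 38 µM; compound alone in buffer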
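Compound autofluorescence was read in 100 mM Tris pH 8.0 after 15 min at room temperature, ex 480 nm/em 540 nm. Intensities were converted to A488 dye-equivalent concentration using an on-plate six-point A488 standard curve.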
Resorufin autofl = compound fluoresces in the resorufin spectral region; Compound fluorescence, resorufin region 547/598 nm, buffer; stronger effect = higher value; max dye-equivalent concentration, M; 0.04% of 59,000 active; AID 588; active = above 10 nM dye equivalent; inconclusive = 1 to 10 nM; inactive = 1 nM or less; a few of its hits are not listed in these tables; further: highest value over a series up to 38 µM
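Dye-equivalent concentration values derive from comparing each well's 547/598 nm fluorescence against resorufin standards included on every plate. Incubation was 15 min at room temperature in 100 mM Tris, pH 8.0.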
Starred values were filed as active, the others as inactive; i = inactive; ? = inconclusive; . = not tested or not shown; & = joins results of further samples; [ ] = dose if it differs, or a comment.

SMILES | A647 fluor | TSHR ag | AID923 | A488 autofl | Resorufin autofl
O=C1C2ON(c3ccccc3)C(c3ccccn3)C2C(=O)N1c1ccc(Br)cc1 (centres undefined) | . | ? | 7.6% | . | .
CCOc1ccc(C(C)(N)C(=O)O)cc1 (centres undefined) | 3.6e-09 | -0.8% | 3.2% | i | i
CCC(=O)N(Cc1cccs1)C1CCOC(C)(C)C1 (centres undefined) | 1.32e-08 | . | . | i | i
Cc1cc(C)c(NC(=O)CSc2nnc(Cc3cccn3C)n2-c2ccc(F)cc2)c(C)c1 | 1.42e-08 | ? | 0.1% | i | i
Cn1c(SCC(=O)c2ccccc2)nc2cccnc21 | 1e-09 | 3.0% | 0.3% | i | i
O=C(Nc1cc(C(F)(F)F)ccc1N1CCOCC1)c1n[nH]c(=O)c2ccccc12 | 1.19e-08 | -7.2% | -1.2% | i | i
c1ccc(OCc2nn3c(-c4ccco4)nnc3s2)cc1 | 1e-09 | . | . | i | i
O=C(NCCC1=CCCCC1)c1cc2c(s1)CS(=O)(=O)C2 | 1e-09 | -0.1%[11.4 µM] | 0.7% | i | i
CCCCNC(=O)Cn1c(-c2ccc(OC)cc2)noc1=O | 1e-09 | 13.5% | 1.3% | i | i
Cc1ccc(-n2c(SCC(=O)N3CCOCC3)nnc2-c2cccnc2)cc1C | 1.82e-08 | 1.6% | -1.4% | i | i
Cn1c(=O)c2[nH]c(-c3ccccc3)nc2n(C)c1=O | 5.3e-09 | 1.9% | -0.4% | i | i
CC1CCC2C(=O)OC(CN=[N+]=[N-])CN2C1c1ccc(Br)cc1 (centres undefined) | . | ? | 0.0%&-2.2%&0.3%&0.3%&-0.5%&1.0%[11.5 µM] | . | .

Profiles from above.
Cc1cc(C)c(NC(=O)CSc2nnc(Cc3cccn3C)n2-c2ccc(F)cc2)c(C)c1 is listed with A647 fluor: 1.42e-08; TSHR ag: ?; AID923: 0.1%; A488 autofl: i; Resorufin autofl: i
Cn1c(SCC(=O)c2ccccc2)nc2cccnc21 is listed with A647 fluor: 1e-09; TSHR ag: 3.0%; AID923: 0.3%; A488 autofl: i; Resorufin autofl: i

Additional compounds follow.
SMILES | A647 fluor | TSHR ag | AID923 | A488 autofl | Resorufin autofl
CCCCn1c(SCC(=O)c2ccc3c(c2)OCCO3)nnc1-c1ccoc1C | 6.05e-08 | 6.6% | -0.4% | i | i
COCCCNc1oc(COc2ccc(Cl)cc2Cl)nc1C#N | 1.85e-08 | 8.7% | 19.5% | i | i
Cc1nc2cnc(Oc3ccccc3)nc2n(CCC#N)c1=O | 1e-09 | ? | 0.3% | i | i
Cc1nc(Nc2ccc(F)cc2)[nH]c(=O)c1CCC(C)C | 1.8e-08 | 11.8% | -4.7% | i | i
O=S(=O)(NCC1CCCO1)c1cc(Br)c(Br)s1 (centres undefined) | 2.37e-08 | 7.9%[11.4 µM] | 0.1% | i | i
CCn1c(C)nc2cc(S(=O)(=O)C(F)(F)C(F)C(F)(F)F)ccc21 (centres undefined) | 6.9e-09 | 25.1% | -0.6% | i | i
N#C/C(=C\Nc1ccccn1)C(=O)C1CC1 | 1e-09 | -4.3%[11.4 µM] | 3.3%[11.5 µM] | i | i
CC1CCN(C(=O)c2cc3ccccc3o2)CC1 | 2.9e-09 | 13.9% | -1.4% | i | i
Cn1c(=O)[nH]c(=O)c2c1nc(N1CCOCC1)n2CC(O)COc1ccccc1 (centres undefined) | 1e-09 | -2.4% | -1.2% | i | i
O=C(CSc1ncn(-c2ccccc2)n1)Nc1ccc2c(c1)OCO2 | 1e-09 | -5.5% | 0.1% | i | i
NC(=O)C1CCCN(C(=O)Nc2cccc3ccccc23)C1 (centres undefined) | 1.29e-08 | 2.2% | -0.9% | i | i
N#CC1=C(N)OC2=C(C(=O)CCC2)[C@]12C(=O)N(CC(N)=O)c1ccccc12 | 3.25e-08 | . | . | i | i
O=C(CCSc1nc2cc(Cl)ccc2o1)N1CCOCC1 | 8.1e-09 | 1.7% | -1.7% | i | i
COC(=O)N1CCC2(CCN(C(=O)Nc3ccccc3)CC2)CC1 | 1e-09 | ? | 1.7% | i | i
Nc1cccc(C(=O)O)c1 | 4.06e-08 | . | . | i | i
COc1ccccc1NS(=O)(=O)c1ccc(NC(=O)c2nc3ncccn3n2)cc1 | 4.07e-08 | -3.8% | 1.1% | i | i
Cc1ccc(NCc2nnc(SCC(=O)Nc3ncc(C)s3)n2CC2CCCO2)c(C)c1 (centres undefined) | 1.6e-09 | -0.9% | 0.7% | i | i
N#CCCN(Cc1cccnc1)S(=O)(=O)c1ccc(S(=O)(=O)N2CCCCCC2)cc1 | 2.2e-09 | -4.3% | 1.0% | i | i
Cn1c(=O)c(=O)n(C)c2cc(S(=O)(=O)CCC(=O)N3CCOCC3)ccc21 | . | 2.3% | 0.2% | . | .
O=C1CC(NCc2ccccc2F)C(=O)N1c1ccccc1 (centres undefined) | 1e-09 | -2.6% | 4.1% | i | i
CO[C@]1(C2=NCCN2)COc2ccccc2O1 | 1.01e-08 | 1.7%&-2.7% | -1.3%&-1.3% | i | i
O=C(Nc1ccc2c(c1)OCO2)C1CCCN1C(=O)NCc1ccccc1 (centres undefined) | 5.2e-09 | 3.2% | 0.4% | i | i
Cc1ccc2c(c1)NC(=O)C(CC(=O)NCCCN1CCCCC1)O2 (centres undefined) | . | 2.0% | 1.9% | . | .
O=C(O)C1C2C=CC(C2)C1C(=O)N1CCN(CCO)CC1 (centres undefined) | 4.25e-08 | -6.1%[11.4 µM] | -1.6% | i | i

Ordered by molecular weight (rising): 3 of the compounds above.
SMILES | A647 fluor | TSHR ag | AID923 | A488 autofl | Resorufin autofl
Nc1cccc(C(=O)O)c1 | 4.06e-08 | . | . | i | i
O=C(O)C1C2C=CC(C2)C1C(=O)N1CCN(CCO)CC1 (centres undefined) | 4.25e-08 | -6.1%[11.4 µM] | -1.6% | i | i
Cn1c(=O)c(=O)n(C)c2cc(S(=O)(=O)CCC(=O)N3CCOCC3)ccc21 | . | 2.3% | 0.2% | . | .

(further entries)
SMILES | A647 fluor | TSHR ag | AID923 | A488 autofl | Resorufin autofl
CN(C)c1ccc(-c2nnn(Cc3ccccc3Br)n2)cc1 | 1.3e-08 | -3.2% | 1.7% | i | i
Cc1nc2c([nH]c3ccc(Br)cc32)s1 | 1e-09 | -7.7% | 2.6% | i | i
COC(=O)COc1cccc(NC(=O)COc2ccccc2)c1 | . | 15.6% | 0.3% | . | .
COc1cc(S(=O)(=O)N2CCN=C2c2ccccc2)ccc1F | 4.4e-09 | 0.4% | -1.2% | i | i
CC(NC(=O)Cc1cccs1)c1ccncc1 (centres undefined) | 1e-09 | 14.1% | 0.8% | i | i
O=C(Cn1c(=O)n(Cc2ccco2)c(=O)c2c3c(sc21)CCCC3)Nc1ccccc1 | 1e-09 | ? | -0.3% | i | i
COc1ccc(CN(C(C)=O)c2cccc(C)c2C)cc1 | 2.92e-08 | ? | 0.2% | i | i
COc1ccc(C(=O)Oc2cc(OC)cc(OC)c2C(C)=O)cc1 | . | 1.4%[11.4 µM] | 0.1%[11.5 µM] | . | .
Cc1ccc(-n2c(=O)cc(N3CCc4ccccc4C3)[nH]c2=O)cc1 | 6.9e-09 | 5.1% | 1.4% | i | i
CC(C)C(NC(=O)c1cccs1)C(=O)NC1=NCCS1 (centres undefined) | 3.41e-08 | 2.7% | -0.9% | i | i
COc1ccc(C2C(=O)c3ccccc3C2=O)c(OC)c1 | 2.1e-09 | 0.1% | 1.4% | i | i
O=C(Nc1nc2ccccc2s1)C1CCCO1 (centres undefined) | 3.78e-08 | -1.3% | -1.0% | i | i

Some of these compounds in order of their number in A647 fluor, lowest first:
Molecule,A647 fluor
Cc1nc2c([nH]c3ccc(Br)cc32)s1,1e-09
O=C(CCSc1nc2cc(Cl)ccc2o1)N1CCOCC1,8.1e-09
O=C(Nc1cc(C(F)(F)F)ccc1N1CCOCC1)c1n[nH]c(=O)c2ccccc12,1.19e-08

(next part)
SMILES | A647 fluor | TSHR ag | AID923 | A488 autofl | Resorufin autofl
CCCCc1cc(=O)oc2cc(C)cc(OCC(=O)O)c12 | 2.2e-09 | -2.0% | -2.0% | i | i
Cc1ccccc1-n1nc2c(c1NC(=O)c1cc3ccccc3oc1=O)CS(=O)C2 (centres undefined) | 2.65e-08 | -3.7% | 1.1% | i | i
Cc1csc(NC(=O)c2c(O)c3c(n(CC(C)C)c2=O)CCCC3)n1 | 2e-09 | 6.4% | -0.1% | i | i
Cc1ccc(OCC(O)CN2CCN(CC(O)COc3ccc(C)cc3Cl)CC2)c(Cl)c1 (centres undefined) | . | 1.9%[11.4 µM] | -1.1% | . | .
COc1ccc(CN2C(=O)CN(C3CCCCCC3)C(=O)C2c2ccc(OC)c(OC)c2)cc1 (centres undefined) | 1e-09 | 15.6% | 0.6% | i | i
Cc1csc(NC(=O)CSc2nnc(-c3cccs3)n2C)n1 | 2.13e-08 | -3.1% | 2.2% | i | i
O=c1[nH]cnc2cc(-c3ccccc3)sc12 | 1e-09 | . | . | i | i
CCC1(CC)C(=O)NC(=O)NC1=NCCc1c[nH]c2ccccc12 | 2.6e-08 | 3.5% | -0.2% | i | i
COc1cccc(C(=O)Nc2ncc3c(n2)CC(C)CC3=O)c1 (centres undefined) | 3.89e-08 | 14.3% | 0.3% | i | i
COc1ccc(C(=O)N2CCC3(CCN(Cc4ccccc4)CC3)CC2)cc1 | 1.06e-08 | ? | 4.6% | i | i
COc1c(F)c(F)c(C(=O)Nc2ccccc2N2CCN(C(=O)C(C)C)CC2)c(F)c1F | 1e-09 | ? | -1.5% | i | i
O=C(C1=C(O)C(=O)N(Cc2ccccc2)C1c1cccnc1)c1ccco1 (centres undefined) | 4.76e-08 | 26.7% | -2.1% | i | i
CC#CCOC(=O)c1c(C)nc2sc3c(c2c1N)CC[C@@H](O)C3 | 4.82e-08 | 22.0% | -1.4% | i | i
CN=CC1=C(O)c2ccccc2C1=O | 9.2e-09 | ? | 1.4% | i | i
CC1N(O)C(c2ccc(Cl)cc2Cl)N(O)C1(C)C (centres undefined) | 1e-09 | . | . | i | i
Cc1cc(NC(=O)CSc2nnc(C3COc4ccccc4O3)o2)no1 (centres undefined) | 3.53e-08 | 5.9% | 1.1% | i | i
CC1CCCN(C(=O)c2ccncc2)C1 (centres undefined) | 5.88e-08 | 1.7% | -1.8% | i | i
COc1ccc(/C(O)=C2/C(=O)C(=O)N(CCCC(=O)O)C2c2ccc(OC)cc2)cc1 (centres undefined) | 6.15e-08 | -2.0% | 1.1% | i | i
CCC(=O)NC(C)C(c1cccs1)N1CCN(c2ccccc2)CC1 (centres undefined) | 3.81e-08 | -1.7% | -0.4% | i | i
CN(C)C(=O)CSc1nnc(CCCCCNC(=O)OC(C)(C)C)o1 | 1e-09 | -5.1% | 1.8% | i | i
Cc1cc(C)c(C)c(OCC(=O)NCC2CCCO2)c1 (centres undefined) | 3.06e-08 | 25.7% | -2.0% | i | i
CCN1CCN(C(C(=O)NC2CCCC2)c2ccc(Cl)cc2)CC1 (centres undefined) | . | 4.4% | -1.7% | . | .
O=c1c(-c2ccc(F)cc2)nc2cnc(Nc3ccccc3)nc2n1C1CC1 | 2.91e-08 | 4.5% | 5.6% | i | i
COC(=O)[C@H](CCSC)NC(=O)NCCC1=CCCCC1 | 1e-09 | 5.1% | -0.2% | i | i

Copied from the list.
A647 fluor, Cc1cc(C)c(NC(=O)CSc2nnc(Cc3cccn3C)n2-c2ccc(F)cc2)c(C)c1 reads 1.42e-08
A647 fluor, CO[C@]1(C2=NCCN2)COc2ccccc2O1 reads 1.01e-08
AID923, Cc1ccc2c(c1)NC(=O)C(CC(=O)NCCCN1CCCCC1)O2 (centres undefined) reads 1.9%
TSHR ag, CCCCn1c(SCC(=O)c2ccc3c(c2)OCCO3)nnc1-c1ccoc1C reads 6.6%
AID923, CCC1(CC)C(=O)NC(=O)NC1=NCCc1c[nH]c2ccccc12 reads -0.2%
AID923, O=C(Nc1nc2ccccc2s1)C1CCCO1 (centres undefined) reads -1.0%

Screening data from PubChem.

This is a subset; rates above refer to the full screens.
